GLA inh pH 4.5: qHTS Assay for Inhibitors of Human alpha-Galactosidase at pH 4.5; Alpha-galactosidase A (Homo sapiens), P06280; purified enzyme, 4-MU-alpha-Gal fluorescence, pH 4.5; activity change, negative = inhibition, % at 105 µM; 230,000 tested, under 10 active; inconclusive = small, poorly fitted or top-dose-only inhibition, or a rising curve; inactive = flat fitted curve, though single readings scatter; no compound was filed as active;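 also: 0% = full activity with enzyme and -100% = basal without enzyme; dose as in the result columns while the protocol names 77 µM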
Rango dissoc inh: qHTS Assay for Inhibitors of RanGTP induced Rango (Ran-regulated importin-beta cargo) - Importin beta complex dissociation | Snurportin-1 (Homo sapiens) + GTP-binding nuclear protein Ran (Homo sapiens) + Importin … | Biochemical FRET Rango-importin beta, RanGTP-induced dissociation | Potency, µM (highest dose often 46.1 µM), for inactives: at the highest dose activity change, negative = inhibition | 340,000 compounds, 0.071% hits | AID 540253, 2011; active means falling FRET ratio curve, often poorly fitted, with flat reads before Ran was added; inconclusive means other falling curves, or compound fluorescence or quenching; inactive means flat or rising ratio curve;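 also: potency is read from the fitted curve at half-maximal effect; % of control where 0% means no effect; nearly all actives have a fitted effect of over 45% in size; -100% = wells without RanGTP and RCC1; the record marks most hits as doubtful in a second field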
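Rango FRET biosensor (snurportin-1 IBB flanked by N-terminal EYFP and C-terminal CFP10) at 0.1 uM, with 0.25 uM importin beta in PBS, 1mM DTT, 0.02% Tween-20, 0.1% BSA. 0.6 uM Ran, 2mM GTP and 0.2 uM RCC1 were then added for 45 min at room temperature. Inhibition read as loss of FRET rise.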
miR-21 FLuc: qHTS Assay for Modulators of miRNAs and/orActivators of miR-21; Potency, µM (top dose mostly 38.3 µM), inactives show at the top dose reporter change, positive = more light; 340,000 tested, under 10 active; HeLa miR-21 FLuc reporter, luciferase, 48 h; active = well fitted rising curve with a large enough effect; inconclusive = small, poorly fitted or top-dose-only effect; inactive = no such curve, though single readings can be large or run the other way;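 also: % of control where 0% means no effect; miR-21 action dims this reporter so a rising signal means less miR-21 action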
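Using DMEM plus 10% FBS, HeLa miR-21-FLuc cells are incubated with test compounds (final up to about 40uM) for 48 hours; firefly luciferase signal is then imaged following reagent-mediated lysis.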
Rango complex inh: qHTS Assay for Inhibitors of Rango (Ran-regulated importin-beta cargo) - Importin beta complex formation; Rango CFP/YFP FRET sensor + importin beta, 45 min; Importin subunit beta-1 (Homo sapiens), Q14974; Potency, µM (series often up to 92.2 µM), for the others: at the top dose inhibition of complex formation; AID 540263, 2011; 340,000 compounds, 0.031% hits; active = rising FRET ratio curve, often small or poorly fitted; inconclusive = mostly compound fluorescence or quenching in the first reads; inactive = flat curves in all reads;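 also: potency is read from the fitted curve at half-maximal effect; 0% = DMSO wells and 100% = buffer wells lacking importin beta; nearly all actives have a fitted effect of over 15% in size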
Target sequence (Q14974 whole entry, looked up): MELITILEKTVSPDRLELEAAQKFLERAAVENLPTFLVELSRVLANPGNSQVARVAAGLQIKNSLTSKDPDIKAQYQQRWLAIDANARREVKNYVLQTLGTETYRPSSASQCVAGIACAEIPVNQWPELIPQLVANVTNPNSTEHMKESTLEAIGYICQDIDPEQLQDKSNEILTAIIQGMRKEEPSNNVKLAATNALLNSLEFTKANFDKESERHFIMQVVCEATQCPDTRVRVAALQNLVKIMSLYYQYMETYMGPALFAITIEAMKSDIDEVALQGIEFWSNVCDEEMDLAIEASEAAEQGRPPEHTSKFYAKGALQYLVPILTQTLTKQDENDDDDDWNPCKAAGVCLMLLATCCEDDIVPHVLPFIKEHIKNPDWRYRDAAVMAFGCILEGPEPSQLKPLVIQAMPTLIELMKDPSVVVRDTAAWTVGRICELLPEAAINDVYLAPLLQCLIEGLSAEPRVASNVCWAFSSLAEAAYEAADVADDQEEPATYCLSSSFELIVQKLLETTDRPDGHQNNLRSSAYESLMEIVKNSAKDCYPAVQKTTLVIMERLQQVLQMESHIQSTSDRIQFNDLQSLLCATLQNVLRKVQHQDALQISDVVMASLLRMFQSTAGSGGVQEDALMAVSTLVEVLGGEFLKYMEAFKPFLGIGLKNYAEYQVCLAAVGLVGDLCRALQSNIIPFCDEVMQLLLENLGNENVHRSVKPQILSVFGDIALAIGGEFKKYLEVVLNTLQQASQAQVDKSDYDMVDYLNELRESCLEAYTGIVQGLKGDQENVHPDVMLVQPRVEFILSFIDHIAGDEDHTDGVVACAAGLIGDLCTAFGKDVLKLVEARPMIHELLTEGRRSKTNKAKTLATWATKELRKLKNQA
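FRET biosensor (snurportin 1 IBB flanked by EYFP and cerulean), 50 nM, with compound 5 min, then 0.125 microM importin beta in PBS, 1 mM DTT, 0.02% Tween-20, 0.1% BSA. CFP/YFP ratio read after 45 min at room temperature; pre-read flags interference.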
* hit, by the source's call; ? = inconclusive; . = not tested or not shown; [ ] = another dose, or the depositor's remark.

| mol | GLA inh pH 4.5 | Rango dissoc inh | miR-21 FLuc | Rango complex inh |
| --- | --- | --- | --- | --- |
| COc1cccc(-c2nc(-c3ccc(NC(=O)Cc4ccccc4OC)cc3)no2)c1 | -8.0 | -2.1% | -2.4% | -2.7% |
| O=C(CCN=C1NS(=O)(=O)c2ccccc21)OCc1cccc(Cl)c1 | . | -2.2% | . | 1.0% |
| O=S(=O)(NCCc1ccc(F)cc1)c1ccc(F)cc1Br | . | 4.8% | . | 3.1% |
| CC1=CN2C(=N)/C(=C/c3ccc(Sc4ccc(C)cc4)o3)C(=O)N=C2S1 | -21.3 | ? | -21.2% | ? |
| O=C(c1ccc2ccccc2c1)C1CCCN(C(=O)c2cnccn2)C1 (stereo unspecified) | 2.5 | 5.3% | -5.1% | ? |
| Cc1cc(S(=O)(=O)Nc2ccc(C(=O)NCC(C)(C)N3CCOCC3)cc2)ccc1F | . | 2.5% | -7.3% | -0.8% |
| COC(=O)c1c(-c2ccc(C)cc2)csc1NC(=O)Cc1ccc(OC)c(OC)c1 | -24.5 | 0.6% | 10.2% | -1.8% |
| Cc1cc2oc(=O)c3c(c2cc1OCc1nn[nH]n1)CCCC3 | 3.0 | -11.2% | -1.8% | -2.8% |
| COC(=O)c1cccc(Cn2c(Cl)c(/C=N/NC(=O)c3ccco3)sc2=O)c1 | . | -11.4% | -7.1% | ? |
| N#CCCn1cc(C(=O)Nc2cccc(C(=O)O)c2)c(-c2ccc(Cl)cc2)n1 | . | 31.9% | 0.0% | 0.6% |
| Cc1cccc(NC(=O)CSc2nnc(CNC(=O)c3ccc(S(=O)(=O)N(C)C)cc3)n2-c2ccccc2)c1 | -4.9 | 1.2% | -2.4% | 1.2% |
| C=CCN1C(=O)CN=C1Nc1cc(C)ccc1C | 0.8 | -12.2% | 1.7% | 4.4% |
| Cc1ccc(NC(=O)CN2CCc3ccccc3C2)cc1 | -5.5 | 4.9% | -32.7% | -0.1% |
| CN1CCN(S(=O)(=O)c2cccc(C(=O)NC3CCCc4ccccc43)c2)CC1 (stereo unspecified) | -7.5 | 5.8% | -8.8% | -0.4% |
| CNC(=O)/C(C#N)=C/c1c(N2CCN(C)CC2)nc2c(C)cccn2c1=O | . | ? | 1.4% | ? |
| COc1cccc(CC(=O)N2CCN(c3ccccc3[N+](=O)[O-])CC2)c1 | -5.0 | -2.1% | -7.8% | -2.1% |
| Cc1ccc(C(=O)OCCc2c(C)[nH]n(-c3ccccc3)c2=O)cc1 | -25.4 | -4.3% | -6.4% | 1.7% |
| Cc1c(Br)c([N+](=O)[O-])nn1CC(=O)Nc1ccc(Cc2ccncc2)cc1 | 12.0 | 22.8% | -0.6% | -0.6% |
| Cc1c2c(n3c(nc4ccccc43)c1C#N)N(c1ccccc1)CC2 | 3.5 | . | -5.6% | . |
| COc1ccc(OC)c(NC(=O)CSc2nncc3ccc(OC)c(OC)c23)c1 | -15.3 | -11.6% | -12.5% | 0.2% |
| COc1ccc(CNC(=O)c2ccc(N3CCC4(CC3)CC(c3ccc(Cl)cc3)=NO4)c(NC(=O)Cc3ccc(F)cc3)c2)cc1 | . | 0.5% | . | 0.5% |
| CC(C)(C)c1[nH]nc2c1C(c1ccco1)C(C#N)=C(N)O2 (stereo unspecified) | 3.8 | -2.5% | -0.5% | 4.3% |
| Cc1ccnc(NC(=O)COC(=O)C23CC4CC(CC(C4)C2)C3)n1 | -2.6 | -14.7% | -2.1% | 0.2% |
| CCn1c(SCC(=O)NC2CCCCC2)nnc1-c1cc2cccc(OC)c2o1 | -23.9 | 18.5% | 0.6% | -0.2% |
| CCc1ccc(C(C)NC(=O)C2CCCO2)cc1 (stereo unspecified) | . | 12.0% | -0.7% | 2.3% |
| Cc1cc(N2CCOCC2)nc(SCC(=O)OCc2ccccc2)n1 | -0.9 | -3.2% | 8.9% | 2.4% |
| COc1cccc(NC(=S)N(CCCN2CCCC2)Cc2cccn2Cc2ccc(Cl)cc2)c1 | -13.9[21.1 µM] | -6.9% | -3.8% | -1.8% |
| C=C(c1cccc2ccccc12)P(=O)(O)O | 4.7 | 4.0% | -10.6% | -0.6% |
| CCCCCOC(=O)c1ccc(NC(=O)c2ccco2)cc1 | -20.0 | -6.0% | -3.7% | -0.2% |
| O=C(NC1CCCc2c1cnn2-c1ccccc1F)c1ccccn1 (stereo unspecified) | . | 5.2% | 25.4% | -4.8% |

Given field by field: 2 of the compounds above
mol: Cc1ccnc(NC(=O)COC(=O)C23CC4CC(CC(C4)C2)C3)n1
  GLA inh pH 4.5 = -2.6
  Rango dissoc inh = -14.7%
  miR-21 FLuc = -2.1%
  Rango complex inh = 0.2%
mol: CCn1c(SCC(=O)NC2CCCCC2)nnc1-c1cc2cccc(OC)c2o1
  GLA inh pH 4.5 = -23.9
  Rango dissoc inh = 18.5%
  miR-21 FLuc = 0.6%
  Rango complex inh = -0.2%

Continued.
| mol | GLA inh pH 4.5 | Rango dissoc inh | miR-21 FLuc | Rango complex inh |
| --- | --- | --- | --- | --- |
| Cc1nc(Cl)c(C(=O)NCCc2ccccc2)c(C)c1[N+](=O)[O-] | . | 5.6% | 0.3% | -1.4% |
| Cc1oncc1-c1csc(-c2ccccc2Cl)n1 | -6.6 | -0.4% | -57.4% | -0.1% |
| CC(CN1CCN(C)CC1)OC(=O)c1ccc(Cl)cc1 (stereo unspecified) | 4.0 | -2.7% | -10.8% | 7.3% |
| C/C(=N\NC(=O)CN(c1ccccc1Br)S(C)(=O)=O)c1ccc2c(c1)OCCO2 | -2.1 | 2.2% | -25.3% | -1.9% |
| Cc1ccc(C(=O)CSC2=NC(N)=C(C#N)C3(CCCCC3)C2C(N)=O)cc1 (stereo unspecified) | -1.0 | -4.2% | 2.5% | 6.0% |
| Cc1cccc(NS(=O)(=O)c2ccc(C)c(C(=O)NCc3ccccn3)c2)c1 | . | 6.6% | . | ? |
| O=C1CC(C(F)(F)C(F)(F)C(F)(F)C(F)(F)F)=Nc2ccccc2N1 | -9.1 | -15.0% | -8.5% | -1.7% |
| N=C(N)N1CCN(Cc2ccccc2)CC1 | -3.2 | . | 0.0% | . |
| CNC(=O)COC(=O)c1c2c(nc3ccccc13)CCC2 | -2.6 | -2.0% | 21.3% | 5.4% |
| Cc1nc2c3cnn(-c4ccc(C)c(C)c4)c3ncn2n1 | -2.5 | 1.2% | -52.7% | 6.4% |
| O=c1[nH]c(=S)n(C2CCCCC2)c(O)c1C=NCCN1CCOCC1 | 5.1 | 2.5% | 1.3% | ? |
| CC(C)C(NC(=O)C(c1ccccc1)c1ccccc1)c1nc2ccccc2[nH]1 (stereo unspecified) | 4.9 | 1.8% | 1.4% | 4.2% |
| Cc1ccccc1CN(C)C(C)C(=O)Nc1ccccc1F (stereo unspecified) | -9.6 | 27.7% | 7.4% | -1.5% |
| O=C(NCCCN1CCOCC1)c1ccccc1NS(=O)(=O)c1cc([N+](=O)[O-])ccc1Cl | 1.5 | -3.2% | -1.3% | -1.3% |
| O=C1CCC/C=C\C[C@@H](CC(=O)N(CCO)Cc2ccccc2)C(=O)NCCO1 | . | 14.2% | . | -3.6% |
| COC(=O)c1ccc2c(c1C(=O)OC)CN(S(=O)(=O)C(C)(C)C)[C@H]2CCO | . | -13.7% | . | -0.8% |
| Cc1ccc(S(=O)(=O)Nc2cc(C)cn(Cc3ccc(F)cc3)c2=O)cc1 | . | -24.5% | 8.5% | ? |
| COCC[N+]1(C)CCCCC1 | 6.3 | 1.8% | 0.5% | 1.1% |
| O=C(/C=C/c1ccc(Cl)cc1)N(Cc1ccccc1)C1CCS(=O)(=O)C1 (stereo unspecified) | -5.2 | -7.9% | -10.9% | 1.1% |
| Cc1[nH]cnc1C(=O)N/N=C/c1c(Cl)cccc1Cl | . | 28.2% | -19.7% | 1.1% |
| CCOC(=O)C1CN(Cc2ccccc2)C(=O)C1=O (stereo unspecified) | . | 5.2% | . | 0.4% |
| CC1=NNC(=O)C1CCC(=O)N/N=C\c1ccc(Cl)c(Cl)c1 (stereo unspecified) | -4.7 | -4.0% | -12.5% | -1.6% |
| CCOC(=O)C1CCCN(C(=O)Cn2nc(Cc3cccnc3)c3ccccc3c2=O)C1 (stereo unspecified) | -2.4 | 26.8% | 1.3% | 1.0% |
| COc1ccc(-c2cc(=O)oc3cc(OCC(=O)N(C)C4CCS(=O)(=O)C4)ccc23)cc1 (stereo unspecified) | . | -3.9% | -1.3% | -2.6% |
| c1coc(-c2nc3nc4ccccc4nc3n2CC2CCCO2)c1 (stereo unspecified) | ? | -23.3% | 14.8% | ? |
| CCOC(=O)c1cnc(SCC(=O)Nc2cc(OC)cc(OC)c2)nc1N | 12.4 | -8.7% | 11.1% | -1.6% |
| Cc1ccc(S(=O)(=O)N(C)CC(=O)NNC(=O)Cc2ccccc2F)cc1 | . | -13.0% | . | 4.5% |
| COc1ccc(N(Cc2ccccc2)S(=O)(=O)c2cccc(C(=O)NC3=NCCS3)c2)cc1 | -10.5 | 0.5% | 6.9% | 1.3% |
| O=C(Nc1cccc(Cl)c1)NC1CC2CCC(C1)N2Cc1ccco1 (stereo unspecified) | -9.6 | -19.1% | 2.3% | 2.0% |
| CN(c1ccccc1)c1cc(Br)nc(Br)c1 | . | -11.1% | . | -0.4% |

Next section.
| mol | GLA inh pH 4.5 | Rango dissoc inh | miR-21 FLuc | Rango complex inh |
| --- | --- | --- | --- | --- |
| COc1ccccc1C(=O)C1CCCN(C(=O)CCc2ccccn2)C1 (stereo unspecified) | 3.1 | 9.3% | 0.1% | -0.7% |
| CC(C)(C)OC(=O)N1CCC(NC(=O)c2[nH]cnc2C(=O)Nc2ccon2)CC1 | . | -12.8% | . | -3.5% |
| O=C(CNCc1ccccc1Cl)Nc1ccccc1N1CCCCC1 | 3.4 | -5.1% | 0.6% | 0.6% |
| COc1ccc(NC(=S)NC(=O)c2ccccc2Cl)cc1 | -2.2 | 15.6% | -41.2% | ? |
| COC(=O)[C@@H]1CCCN1C(=O)CCc1nnc(CCC2CCCCC2)o1 | 2.7 | -6.8% | -56.2% | -0.8% |
| N#Cc1c(-c2ccccc2)nc(SCc2ccc([N+](=O)[O-])cc2)[nH]c1=O | . | -4.1% | 1.3% | -1.1% |
| Cc1c(C(=O)NCCSCc2ccccc2)cccc1[N+](=O)[O-] | 2.6 | -17.0% | -3.5% | -0.9% |
| COc1ccc(OCCNC(=O)/C=C/c2ccccc2)cc1 | -6.1 | 4.7% | -2.0% | 5.2% |
| CC1CCCC(NC(=O)CC2Nc3ccccc3NC2=O)C1C (stereo unspecified) | 13.5 | -0.7% | -6.6% | ? |
| Cc1ccc(C(=O)NCC(=O)OCCCOC(=O)CNC(=O)c2ccc(C)cc2)cc1 | . | 0.3% | . | -3.7% |
| O=C(Cn1nc(C(=O)O)c2ccccc2c1=O)Nc1cccc(S(=O)(=O)N2CCOCC2)c1 | . | -1.7% | . | -0.6% |
| CCOCCCN(C)C1CCN(C(=O)c2oc3ccccc3c2NC(=O)Cc2ccc(F)cc2)CC1 | . | 6.2% | -7.6% | 3.1% |
| CCC(=O)N1CCc2cc(OC)c(OC)cc2C1COc1ccc(C(=O)OC)cc1 (stereo unspecified) | -9.6 | -12.4% | 4.2% | -0.6% |
| O=C(Nc1nc2ccc(F)cc2s1)C1CCCO1 (stereo unspecified) | 11.0 | 2.0% | -24.6% | 6.5% |
| C/C(=N\NC(=O)Cc1cc(=O)[nH][nH]1)c1cccc([N+](=O)[O-])c1 | 6.5 | -1.5% | -0.4% | -1.6% |
| Cc1ccc2c(c1)nnn2C1CCN(CC(=O)N(c2ccccc2)c2ccccc2)CC1 | -1.4 | -14.0% | 12.9% | -0.9% |
| CN(CCc1ccccc1)C(=O)c1ccc(NC(=O)Cc2ccc(NC(=O)C3CCCN(C(=O)CCc4ccccc4)C3)cc2)cc1 (stereo unspecified) | . | -2.4% | . | -5.6% |

This is a subset, so the mix of outcomes need not match the whole.
